High-throughput results as filed in PubChem.
HTT prom inh = inhibitors of huntingtin promoter activity; HEK293 HTT promoter firefly luciferase reporter (activity 0% = vehicle and -100% = no light), 24 h; Potency, µM (top dose mostly 57.5 µM), without a hit: at the highest dose activity change, negative = inhibition, most hits filed as inhibitors; AID 1508623; hit rate 0.93% among 48,000; active means well fitted inhibition curve with a large enough effect; inconclusive means small, poorly fitted or top-dose-only effect; inactive means no such curve, though single readings can be large or run the other way; further: nearly all actives have a fitted effect of over 50% in size
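HEK293 luciferase promoter-reporter cells (2,500/well) plated 24 h, then compounds added at up to 57.5 uM final for 24 h at 37 °C. Firefly luminescence by Dual-Glo, normalized to vehicle (0%) and zero RLU (-100%).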
PMP22 txn prim = PMP22 gene transcription modulation | hit rate 2% among 43,000 | S16 Pmp22-F2sN Schwann cells (luciferase reporters placed in the Pmp22 gene), FLuc/NLuc coincidence luminescence, 24 h | AID 1508649 | Potency, µM (titrated, usually from 57.5 µM), for inactives: top-dose activity change, negative = inhibition, usual class: inhibitors; active = clear falling dose curves in both reporters; inconclusive = both reporters move, but less clearly or upward; inactive = either reporter flat; the % is the NLuc reporter signal; further: on the % scale 0 is the no-effect control and ±100 the full control effect; some results filed as inactive show a strong effect at the top dose
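S16(c9) Schwann cells with FLuc/NLuc coincidence reporter in the Pmp22 3' UTR; compounds pin-transferred, 24 h at 37C. Dual-luciferase read: FLuc first, then NLuc after Stop&Glo, each 10 min at room temperature.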
* = called active by the depositor; ? = inconclusive; nt = not tested or not shown; [ ] = another dose, or the depositor's remark. Potency means the concentration at half of the fitted maximal effect.

SMILES	HTT prom inh	PMP22 txn prim
COc1ccc(-c2nc(C)c(CCNC(=O)C(=O)Nc3ccccc3C#N)s2)cc1OC	0.2%	-8.7%
COc1ccccc1N1CCN(C(CNC(=O)C(=O)NCc2cccnc2)c2cccnc2)CC1 (stereo not given)	?	?
CN1CCN(C(c2ccccc2Cl)c2sc3nc(-c4ccco4)nn3c2O)CC1 (stereo not given)	-3.6%	-4.6%
CCN(Cc1ccccc1)C(=O)Cn1c(=O)n(-c2ccc(Cl)c(Cl)c2)c(=O)c2c(C)c(C(=O)N(C)C)sc21	?	?
O=C(NCCC1=CCCCC1)c1ccc2c(c1)N(Cc1ccc(F)cc1)C(=O)c1ccccc1S2(=O)=O	-23.5%	-29.0%
COc1ccc(CNC(=O)C2CCN(S(=O)(=O)c3cn(C)cn3)CC2)cc1	-7.9%	-32.6%
CC(C)C(=O)Nc1ccccc1C(=O)OCc1cc(=O)n2nc(C3CC3)sc2n1	-16.2%	-2.6%
CCOC(=O)c1cnc2ccccc2c1NCCc1ccc(OC)c(OC)c1	?	?
O=C(NCc1ccccc1F)C(=O)NCC(c1cccs1)S(=O)(=O)c1cccs1 (stereo not given)	-14.4%	-23.1%
COc1ccc2c(c1)c(N1CCCC1=O)c(C(=O)Nc1ccccc1C(F)(F)F)n2C	-21.0%	?
Cc1ccccc1Cn1c(=O)n(Cc2ccc3c(c2)OCO3)c(=O)c2oc3ccccc3c21	-5.4%	13.3%
COc1ccc(CCCc2nnc(SCC(=O)Nc3cccc(C)c3)o2)cc1C	9.0%[11.5 µM]	4.8%
Cc1ccc(-n2c(=O)c3c(cnn3C)n(CC(=O)Nc3ccc(C)cc3C)c2=O)cc1	-6.4%	0.2%
CC(C)OC(=O)c1c(NC(=O)COc2cccc(Br)c2)sc2c1CCCC2	-0.5%	-10.6%
CCc1ccc(S(=O)(=O)c2nnn3c2nc(Nc2ccc(F)cc2)c2cc(Cl)ccc23)cc1	0.4%	?
Clc1ccccc1Cn1c(-c2cccs2)nc2ccccc21	?	0.8%
CCc1ccc(S(=O)(=O)NCc2nc3cccnc3n2Cc2cccc(OC)c2)cc1	-8.2%	-11.4%
O=C(NCC1CCN(Cc2cccc(F)c2)CC1)c1cc2ccc3cccnc3c2[nH]1	-1.8%	?
Cc1ccc(NC(=O)C(=O)NCCCN2CCOCC2)cc1C	0.3%	-4.5%
CCn1c(SCCOc2ccccc2F)nc2ccccc21	-3.2%	-28.4%
Cc1ccc(C)c(NC(=O)CSc2nnc3[nH]c(=O)cc(-c4ccccc4)n23)c1	18.9%	?
O=C(Cn1ncc2c3ccccc3n(Cc3ccccc3)c2c1=O)NCc1cccs1	7.5%	-17.2%
CCC(=O)Nc1ccc(CC)cc1-c1nc2ccccc2n(CC(=O)Nc2cccc(OC)c2)c1=O	-8.7%	4.7%
COc1ccc(CCNC(=O)C(=O)Nc2ccc(C)c(C)c2)cc1	14.0%	-7.3%
Cc1cccc(NC(=O)C(=O)NCC(c2cccnc2)N2CCOCC2)c1 (stereo not given)	-7.7%	-9.2%

Whole records as entered above.
CCN(Cc1ccccc1)C(=O)Cn1c(=O)n(-c2ccc(Cl)c(Cl)c2)c(=O)c2c(C)c(C(=O)N(C)C)sc21 as listed: HTT prom inh = ?; PMP22 txn prim = ?
CC(C)OC(=O)c1c(NC(=O)COc2cccc(Br)c2)sc2c1CCCC2 as listed: HTT prom inh = -0.5%; PMP22 txn prim = -10.6%

Remaining list, next part
SMILES	HTT prom inh	PMP22 txn prim
COc1ccc(C)cc1NC(=O)CN1C(=O)CCc2cc(S(=O)(=O)N3CCOCC3)ccc21	-7.9%	?
CC(C)(C)C1CCc2c(sc(NC(=O)CCC(=O)O)c2C(=O)Nc2ccccc2C(F)(F)F)C1 (stereo not given)	?	-5.0%
Cc1c(C(=O)Nc2ccc(F)cc2)oc2ccc(S(=O)(=O)N3CCCCCC3)cc12	?	15.2µM*
COCCN(Cc1ccco1)C(=O)c1cc2c(Cl)nc3ccc(C)cc3c2s1	0.5%	6.2%
COc1cccc(C(=O)COC(=O)c2cc(-c3cccs3)nc3ccccc23)c1	-19.7%	-12.4%
COc1ccc(Nc2ncc(C(=O)N3CCN(c4ccc(OC)cc4)CC3)c3ccccc23)cc1	?	?
O=C(CSc1nc2ccccc2c2nc(-c3ccccc3)nn12)Nc1ccc(F)cc1	-14.9%	-1.8%
O=C(NC1CC(=O)N(c2ccc(Cl)cc2)C1)C(=O)c1c[nH]c2ccccc12 (stereo not given)	-0.1%	?
CN(C(=O)CSc1nc2ccc(NC(=O)COc3ccccc3)cc2s1)c1ccccc1	?	?
O=C(c1ccc(CSc2nc3ccncc3n2Cc2ccccc2F)cc1)N1CCCCC1	-2.7%	-25.1%
CCOC(=O)c1ccc(NC2SC(=O)N(Cc3cccc(C(=O)O)c3)C2=O)cc1 (stereo not given)	51.8%[activator]	1.2%
COc1ccc(N2CCN(C(=O)CCn3c(=O)c4cccn4c4cccnc43)CC2)cc1	-10.4%	26.3%
O=C(NCCc1ccc(F)cc1)C(=O)NCC(c1cccs1)S(=O)(=O)c1ccc(Cl)cc1 (stereo not given)	?	?
CCC(C)Cn1c(/C=C/c2ccccc2)nc2ccccc21 (stereo not given)	-21.5%	?
CC1CCN(C(=O)c2cnn(-c3ccc(Cl)cc3)c2C2CCN(C(=O)OC(C)(C)C)CC2)CC1	-5.4%	4.7%
Cc1ccc(-c2nc3cc(NC(=O)c4cc(Br)ccc4Cl)ccc3o2)cc1	18.6%	-5.6%
CSc1ccc(-c2nnn(CC(=O)Nc3sc4c(c3C#N)CCC(C(C)(C)C)C4)n2)cc1 (stereo not given)	7.5%	-12.1%
Cc1ccc(-n2ncc(C(=O)NCCc3ccsc3)c2C2CCN(C(=O)OC(C)(C)C)CC2)cc1C	?	?
COCCCNC(=O)c1ccc(Cn2c(=O)c3ccccc3n(CC(=O)Nc3ccc(C)cc3C)c2=O)cc1	-8.3%	?
COc1ccc(Cl)cc1NC(=O)CSc1cn(CC(=O)N2CCCCCC2)c2ccccc12	?	?
COc1ccccc1N1CCN(C(=O)c2ccc3c(c2)CCN3S(=O)(=O)c2ccccc2)CC1	?	-26.9%
COC(=O)CCSc1nc2sc3c(c2c(=O)n1Cc1ccccc1)CCC(C(C)(C)C)C3 (stereo not given)	?	34.6%
CC(C)Cc1nn2cc(-c3cccc(Br)c3)nc2s1	?	?
COc1ccccc1OC(C)C(=O)NCC1(N2CCOCC2)CCCCC1 (stereo not given)	-14.2%	-12.0%
N#Cc1cccc(NC(=O)c2cc3c(s2)-c2ccc(Cl)cc2SC3)c1	-18.3%	?

Continuation:
SMILES	HTT prom inh	PMP22 txn prim
COc1ccc(-c2nn(-c3ccc(F)cc3)c3c2cnc2cc4c(cc23)OCO4)cc1	0.0%	-16.1%
COc1ccccc1Cc1nc2ccccc2nc1SCC(=O)N1CCC(C)CC1	?	?
CCN(C(=O)c1cn(CC)c(=O)c2cc(OC)c(OC)cc12)c1ccc(C)c(C)c1	-22.6%	-12.0%
N[C@H](C(=O)O)[C@@H](O)c1ccc(O)c(O)c1	5.3%	nt
Cc1ccc(Cl)cc1N1CCN(C(=O)C(C)n2ncn3cccc3c2=O)CC1 (stereo not given)	-20.2%	0.7%
Cc1ccc(N2CCN(S(=O)(=O)c3ccc(F)c(C(=O)Nc4ccc(Cl)cc4Cl)c3)CC2C)cc1 (stereo not given)	?	?
CCOc1ccc(CCNC(=O)C2CCC(CNS(=O)(=O)c3ccc(Cl)cc3)CC2)cc1OCC (stereo not given)	-20.6%	7.4%
CCc1ccc(CNC(=O)CN2C(=O)C3CCCCN3c3ccc(C(=O)N4CCCC4)cc32)cc1 (stereo not given)	-14.9%	-5.8%
CCN(C(=O)Cn1c(=O)n(-c2ccccc2)c(=O)c2ccc(C(=O)NCc3ccc4c(c3)OCO4)cc21)c1cccc(C)c1	-6.8%	-2.5%
CCCCC(=O)N1CC(=O)Nc2ccc(F)cc2C1c1ccc(F)cc1 (stereo not given)	-18.7%	6.1%
CCCCC(=O)OC1=C(C(=O)c2ccccc2)N(CC)S(=O)(=O)c2ccccc21	-17.6%	-14.5%
CCc1ccc(NC(=O)N2CC(C)Oc3ccc(C)cc32)cc1 (stereo not given)	-1.7%	-1.1%
Cc1nnc(N2CCN(c3ccccc3F)CC2)c2c1nnn2Cc1ccc(F)cc1	-26.5%	0.3%
CCCSc1nnc(NC(=O)c2cc(=O)c3ccccc3o2)s1	15.1%	3.6%
CCc1cccc(C)c1NC(=O)c1cc(S(=O)(=O)N2CCCCCC2)cn1C	-24.7%	-18.8%
CCc1ccc(NC(=O)CSc2cn(CC(=O)N3CCOCC3)c3ccccc23)cc1	17.2%	-5.3%
CO[C@@]1(NC(=O)C(C(=O)O)c2ccc(O)cc2)C(=O)N2C(C(=O)O)=C(CSc3nnnn3C)CO[C@@H]21 (stereo not given in full)	15.7%	nt
Cc1cc(C(F)F)n2nc(C(=O)Nc3cccc(Cl)c3C)nc2n1	-5.5%	-30.4%
NC(=O)C1(N2CCCCC2)CCN(C(=O)Nc2ccc(C(F)(F)F)cc2)CC1	-10.0%	-13.6%
CCc1ccccc1NC(=O)Nc1cc(C(=O)NCc2ccc(C(C)C)cc2)ccc1N1CCCC1	-7.1%	?
Cc1ccccc1C(=O)N(Cc1nc(-c2ccc(Cl)cc2)no1)C(C)C	?	?
COc1cc2[nH]c(=O)n(CCCCCC(=O)N3CCN(c4ccc(Cl)cc4)CC3)c(=O)c2cc1OC	-18.5%	?
Cc1ccc(NC(=O)c2ccc(CNS(=O)(=O)c3ccc4c(c3)C(C)(C)C(=O)N4C)cc2)cc1	?	-0.3%
CCc1ccc2oc(C(=O)Nc3cccc(C(F)(F)F)c3)cc(=O)c2c1	-0.1%[11.5 µM]	0.1%
Cc1ccc(NC(=O)Cn2c(-c3cncs3)nc3ccccc32)c(Br)c1	-10.4%	1.0%

Ordered by number of heavy atoms (lowest first): part of the list above.
SMILES	HTT prom inh	PMP22 txn prim
Cc1ccccc1C(=O)N(Cc1nc(-c2ccc(Cl)cc2)no1)C(C)C	?	?
Cc1nnc(N2CCN(c3ccccc3F)CC2)c2c1nnn2Cc1ccc(F)cc1	-26.5%	0.3%
CCc1ccccc1NC(=O)Nc1cc(C(=O)NCc2ccc(C(C)C)cc2)ccc1N1CCCC1	-7.1%	?

(next part)
SMILES	HTT prom inh	PMP22 txn prim
CCn1c(C(=O)NCc2ccccc2Cl)cc2sc(Cl)cc21	?	0.7%
COc1ccc(Cn2ccc3nc(C)c(C(=O)NCc4ccc(SC)cc4)cc3c2=O)cc1	?	-7.4%
CCOc1ccc(NC(=O)c2ccc3c(c2)nnn3C2CCCC2)cc1	-10.2%	?
Cc1ccc(NC(=O)c2cc(S(=O)(=O)N3CCCC3)c[nH]2)c(C)c1	-6.9%	-56.3%
COc1ccc(C(=O)N(Cc2ccc(N(C)C)cc2)CC2CCCO2)cc1 (stereo not given)	0.1%	33.4%
O=C(OCc1ccccc1F)c1ccc(-c2nnn(Cc3ccccc3)n2)cc1	0.5%	-0.5%
CCCN(CCC)C(=O)C1CCCN(S(=O)(=O)c2cc(Br)cc3c2N(C(=O)CC)CC3)C1 (stereo not given)	-4.4%	?
CCn1nnc2cc(C(=O)Nc3cccc(Cl)c3C)ccc21	17.8%	?
Cn1c(=O)c2sccc2n2c(CCCC(=O)Nc3ccc(F)c(F)c3)nnc12	0.6%	-1.7%
CCc1ccccc1NC(=O)C1CCN(c2cnccn2)CC1	-15.1%	43.8%
O=C(NC1(C(F)(F)F)N=C(c2ccccc2)N(Cc2ccccc2)C1=O)c1ccc(F)cc1 (stereo not given)	-18.8%	6.9%
COC(=O)c1ccc(Cn2nnc3c(=O)[nH]c(C4CCCN(S(=O)(=O)c5ccccc5)C4)nc32)cc1 (stereo not given)	-1.2%	?
Cc1ccccc1NS(=O)(=O)c1nnc(NC(=O)c2ccco2)s1	-8.6%	-2.1%
COc1cc(NC(=O)c2cccc3c2C(=O)N(C2CCCCC2)C3)cc(OC)c1OC	-28.9%	?
O=S(=O)(c1ccc2nc(N3CCN(c4ccccc4F)CC3)ccc2c1)N1CCCCC1	1.0%	1.6%
O=C(O)CCCCC(CCSCc1ccccc1)SCc1ccccc1 (stereo not given)	35.6%[activator]	nt
CCCCCn1cc2c(c1-c1ccc(Cl)cc1)c(=O)n(C)c(=O)n2C	-6.6%	?
CC1CCN(c2nc3ccc(C(=O)NC(C)C)cc3s2)CC1	-83.1%	3.4%
COc1ccc(C)cc1NC(=O)C(=O)NCCc1csc2nc(-c3ccccc3F)nn12	-1.7%	-16.0%
Cc1ccc(-n2ncc3c(NCCCc4ccccc4)ncnc32)cc1	5.2%	?
COc1ccc(NC(=O)CSCc2cc(=O)c3cc(Cl)ccc3[nH]2)cc1	2.3%	13.8%
CC1=C(c2ccc(C)c(C)c2)S(=O)(=O)N=C1N1CCC(C(=O)NCc2ccc(N(C)C)cc2)CC1	-29.6%	-24.0%
O=C(COc1ccc(F)cc1)NC1CC(=O)N(c2ccc3c(c2)OCCO3)C1 (stereo not given)	-11.5%	3.5%
Cc1ccc(NC(=O)CCCN2C(=O)COc3ccc(C)cc32)c(Cl)c1	5.6%	?
